KCNQ2 enhance = potentiators of rat KCNQ2 potassium channel; Potassium voltage-gated channel subfamily KQT member 2 (Rattus norvegicus), O88943; CHO-K1 KCNQ2, FluxOR thallium flux fluorescence; stronger effect = higher value; B-score at 10 µM; 310,000 compounds, 0.54% hits; AID 2239, 2010;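 active means fluorescence ratio B-score at least 3 SD of library B-scores, with initial fluorescence B-score within 3 SD, cut at about 5.3 in these data; same plate scores as AID 2156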;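 further: B-score of peak minus minimum over baseline fluorescence ratio after K+ and Tl+ stimulus; positive B-score means potentiation of KCNQ2 with more thallium influx and brighter signal; only the inactives scoring about 0 or higher are listed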
Target sequence (O88943 whole entry, looked up): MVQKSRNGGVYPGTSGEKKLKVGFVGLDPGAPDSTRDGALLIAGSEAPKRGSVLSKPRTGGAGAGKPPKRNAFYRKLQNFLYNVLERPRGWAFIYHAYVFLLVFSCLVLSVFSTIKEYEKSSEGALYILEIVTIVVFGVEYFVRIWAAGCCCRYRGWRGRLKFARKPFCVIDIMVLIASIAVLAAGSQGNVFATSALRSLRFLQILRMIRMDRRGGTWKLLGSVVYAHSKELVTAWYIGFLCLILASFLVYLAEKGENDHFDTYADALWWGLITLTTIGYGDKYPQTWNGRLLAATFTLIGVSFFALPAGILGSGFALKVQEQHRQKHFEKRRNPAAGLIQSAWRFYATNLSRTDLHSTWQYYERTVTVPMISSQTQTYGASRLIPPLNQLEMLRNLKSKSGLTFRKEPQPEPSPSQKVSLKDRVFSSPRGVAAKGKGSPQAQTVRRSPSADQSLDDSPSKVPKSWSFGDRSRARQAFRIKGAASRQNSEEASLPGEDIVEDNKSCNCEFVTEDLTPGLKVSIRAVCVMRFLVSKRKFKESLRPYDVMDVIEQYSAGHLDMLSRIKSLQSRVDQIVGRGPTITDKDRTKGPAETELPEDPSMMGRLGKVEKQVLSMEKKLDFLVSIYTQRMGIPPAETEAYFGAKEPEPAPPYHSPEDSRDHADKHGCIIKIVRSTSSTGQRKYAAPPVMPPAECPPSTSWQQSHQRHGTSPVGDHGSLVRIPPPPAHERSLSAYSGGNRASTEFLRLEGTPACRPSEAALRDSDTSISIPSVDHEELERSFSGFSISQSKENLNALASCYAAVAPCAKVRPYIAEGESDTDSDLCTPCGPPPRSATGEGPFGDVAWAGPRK
KCNQ2 enhance baseline = second read-out of KCNQ2 enhance, no call of its own (marks repeat the call); B-score; compound at 10 µM; measured here: initial fluorescence intensity artifact check;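 brightness before thallium and not channel activity; 0 = typical well and far values either way flag optical interference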
Numbers without * were called inactive; · = no result given.

SMILES	KCNQ2 enhance	KCNQ2 enhance baseline
Cc1ccc(-c2cc(C(F)F)n3ncc(C(=O)NN4CCCCC4)c3n2)cc1	0.47	0.37
CC(C)CCNC(=O)CN(CC1CCCO1)C(=O)CCC(=O)Nc1nccs1 (stereo unspecified)	2.32	0.1
COC(=O)c1ccc(NC(=O)Cn2nc(C(=O)Nc3ccc(C)cc3)ccc2=O)cc1	0.07	-0.01
O=C(NCCc1ccccc1)c1ccc(CS(=O)(=O)c2ccc(Cl)cc2)o1	0.96	0.44
O=C(CSc1nc(O)c(C2CCCCC2)c(=O)[nH]1)Nc1ccc(Cl)cc1	0.93	-0.03
COc1ccc(-n2cc(C#N)c(=O)[nH]c2=O)cc1	0.01	0.74
O=C(Nc1ccc2c(c1)OCCO2)C1CCCN(S(=O)(=O)c2cccnc2)C1 (stereo unspecified)	0.27	-0.72
COc1ccc(O)c(-c2cn[nH]c2-c2cccs2)c1	0.5	0.3
COc1cccc(Cn2cnc3c([N+](=O)[O-])c(C)c(C)cc32)c1	1.01	-0.02
CCC(C)(C)NC(=O)C(c1cccc(OC)c1OC)N(C(=O)CCC(=O)Nc1cc(C)on1)C(C)C (stereo unspecified)	0.03	0.66
Cc1cc(C)nc(SCC(=O)N2CCOCC2)n1	0.61	-0.76
COc1ccc2nc(SCC(=O)c3ccco3)[nH]c2c1	0.5	-0.78
COC(=O)C1=C[C@@H](C(=O)OC)C2C3=C(C(=O)C24CCCCC4)[C@H](C)n2c(=O)n(C)c(=O)n2[C@@H]3C1 (stereo partly specified)	0.9	0.39
C#CCNC(=O)C1=C[C@H](c2ccc3c(c2)OCO3)C[C@H](OCCCCO)O1	0.13	-0.02
O=C(CSc1nnc(SCc2ccc(Cl)cc2)s1)N1CCN(C(=O)c2ccco2)CC1	0.39	-0.53
O=C1C(C=NCCCN2CCOCC2)=C(O)c2ccccc21	1.62	1.48
CCN(CC)CCNC(=O)c1cccc(NC(=O)C(=O)c2ccccc2NC(C)=O)c1	0.7	-0.01
Cc1cc(C(=O)OCC(=O)N(C)C2CCS(=O)(=O)C2)c(C)n1-c1ccccc1 (stereo unspecified)	0.51	-0.56
COc1ccc(OC)c(S(=O)(=O)NCc2cccnc2)c1	0.02	-1.69
CC1(C)Cc2c(cnn2-c2cccc(F)c2)C(NC(=O)c2csnn2)C1 (stereo unspecified)	0.67	-0.81
O=C(NCCN1CCOCC1)c1cc(-c2ccc(F)cc2)nc2ccccc12	0.02	1.44
CCOc1ccc(-c2cccc(NC(=O)c3cccs3)c2)nn1	0.17	1.04
CC(C)(C)n1nc2c(c1NC(=O)Cc1ccc([N+](=O)[O-])cc1)CS(=O)(=O)C2	1.11	-0.02
CC1=C(C(=O)Nc2ccccn2)C(c2ccc3c(c2)OCO3)C2=C(CC(C)(C)CC2=O)N1 (stereo unspecified)	0.39	-0.02
CNC(=O)/C(=C\c1ccco1)NC(=O)c1ccco1	0.47	-1.01
Cc1ccccc1COc1cccc(/C=N/NC(=O)c2nnn(-c3nonc3N)c2C)c1	0.18	-0.33
CCOC(=O)c1ccc(NC(=O)Nc2ccon2)cc1	0.73	1.86
CCOC(=O)CSC1=C(C#N)C(c2ccc(Cl)cc2)CC(=O)N1 (stereo unspecified)	0.03	0.23
COc1ccc(Cl)cc1S(=O)(=O)N1CCCC(C(=O)N2CCOCC2)C1 (stereo unspecified)	0.92	-3.14
O=C(CN1CCCCCCC1)N/N=C/c1ccccc1F	0.78	0.15
COCC(C)NC(=O)c1cc(-c2ccccc2OC)on1 (stereo unspecified)	0.05	-0.1
COc1ccc(-c2nc(N3CCC(C)CC3)[nH]c(=O)c2C#N)cc1	0.04	-0.99
CCCCc1c(C)nc(Nc2ccc(OC)cc2)[nH]c1=O	0.93	2.44
Cc1c(Br)c(=O)oc2c(Br)c(O)c(O)cc12	0.01	-0.07
CC(C)CN1C(=O)c2ccc(C(=O)Nc3ccccc3C(=O)O)cc2C1=O	0.92	3.44
O=C(NCCO)C1COc2ccccc2O1 (stereo unspecified)	0.89	-1.05
COc1cc(/C=N\NC(=O)c2ccc(=O)[nH]n2)cc(OC)c1OC	0.4	1.16
Cc1cc(C(F)(F)F)n2ncc(-c3cccc(Br)c3)c2n1	0.29	-1.87
COc1ccc(CN=C2NC(=O)CC(C(=O)Nc3ccc(F)cc3)S2)cc1 (stereo unspecified)	0.05	-0.28
CN(CC(=O)Nc1ccc(F)cc1)C(=O)c1cc2c(s1)CCCCC2	1.1	0.34

In the list so far, 7 have fluorine:
SMILES	KCNQ2 enhance	KCNQ2 enhance baseline
Cc1ccc(-c2cc(C(F)F)n3ncc(C(=O)NN4CCCCC4)c3n2)cc1	0.47	0.37
CC1(C)Cc2c(cnn2-c2cccc(F)c2)C(NC(=O)c2csnn2)C1 (stereo unspecified)	0.67	-0.81
O=C(NCCN1CCOCC1)c1cc(-c2ccc(F)cc2)nc2ccccc12	0.02	1.44
O=C(CN1CCCCCCC1)N/N=C/c1ccccc1F	0.78	0.15
Cc1cc(C(F)(F)F)n2ncc(-c3cccc(Br)c3)c2n1	0.29	-1.87
COc1ccc(CN=C2NC(=O)CC(C(=O)Nc3ccc(F)cc3)S2)cc1 (stereo unspecified)	0.05	-0.28
CN(CC(=O)Nc1ccc(F)cc1)C(=O)c1cc2c(s1)CCCCC2	1.1	0.34

Next structures
SMILES	KCNQ2 enhance	KCNQ2 enhance baseline
Cc1ccc2nc(C)c(C(=O)NN=C3CCCCCC3)n2c1	1.71	-2.45
Cc1c(C(=O)NCc2ccccc2)c(-c2ccccc2)nn1-c1ccccc1	-5.6	·
O=C(Cn1c(=O)[nH]c2ccsc2c1=O)NC1CCCCC1	0.01	-0.59
Cc1ccc(NC(=O)Cn2c(=O)n(CCCCC(=O)NCc3ccco3)c(=O)c3ccccc32)cc1	0.73	-1.2
Cc1ccc(NC(=O)COC(=O)c2nn(C)cc2Cl)cc1	0.22	-1.47
CCCN1CCN(C(=O)c2cccc3c2C(=O)N(CCOC)C3)CC1	0.09	-0.18
O=C(CSc1nc2ccccc2s1)NCc1cc([N+](=O)[O-])ccc1O	0.24	-0.12
C/C(=N\NC(=O)c1cccc([N+](=O)[O-])c1)c1cccc(NC(=O)C2CC2)c1	2.54	0.18
COC(=O)Cc1cc(=O)oc2cc(O)ccc12	0.87	1.19
COc1ccc(OC)c(/C=N/N(CCC#N)C2=NS(=O)(=O)c3ccccc32)c1	0.52	-0.95
COc1cccc(C(c2c(O)nc(SC)n(C)c2=O)c2c(O)nc(SC)n(C)c2=O)c1	1.09	-1.08
Cc1ccc2c(c1)NC(=O)C(CC(=O)NCc1cccnc1)O2 (stereo unspecified)	1.38	-0.27
COc1cccc(NC(=O)Nc2nnc(N3C(C)CCCC3C)s2)c1 (stereo unspecified)	0.14	-0.81
Cc1ccc([N+](=O)[O-])c(OCCN2CCNCC2)c1	1.31	-0.45
COc1c2ccoc2nc2c(OC)cccc12	0.66	1.74
Cc1nn(C)cc1C(=O)NNC(=S)Nc1ccc(Cl)cc1	0.05	1.39
O=C(NC(=S)Nc1nc2ccccc2s1)c1cccs1	6.76*	0.39*
O=C(CSc1nc(=O)n2ccccc2n1)NCc1ccc2c(c1)OCO2	0.16	0.69
COC(=O)CN1C(=O)COc2ccc(Cl)cc21	0.01	0.07
OC(CN1CCN(Cc2ccccc2)CC1)c1ccc(F)cc1 (stereo unspecified)	0.7	0.48
CCC(C(=O)NC1CCCCC1)N(Cc1cccs1)C(=O)CCC(=O)Nc1cc(C)on1 (stereo unspecified)	0.01	0.01
CC(C)c1ccccc1OCC(=O)Nc1ccc2[nH]ncc2c1	0.71	-2.64
Cc1ccc(N2C(=O)N(CC(=O)Nc3cccc([N+](=O)[O-])c3C)C(=O)C2C)cc1 (stereo unspecified)	0.2	-0.07
COc1cc(Cl)ccc1OCc1cc(C(=O)N(C)Cc2cn(C)nc2C)no1	0.41	0.58
CNc1nc2ccccc2n(C)c1=O	1.2	0.41
CC(=O)CCc1oc2c([N+](=O)[O-])cccc2c1-c1ccc(C)o1	0.96	0.76
CC(C)CNC(=O)NC(=O)COc1ncnc2sccc12	0.48	0.03
COc1cc2c(cc1OC)CN(C(=O)C(CCSC)NS(=O)(=O)c1ccc(C)cc1)CC2 (stereo unspecified)	1.02	1.58
O=C(CSc1ncnc2c1cnn2-c1ccc(F)cc1)NC1CCCC1	2.86	0.01
O=C(O)c1ccc2c(c1)C(=O)N(Cc1ccco1)C2=O	0.35	-0.38
Nc1nonc1-n1nnc(C(=O)N/N=C/c2cccc(F)c2)c1-c1ccccc1	0.56	0.93
CCC(C)[C@H](NC(=O)Nc1ccc(C)cc1C)C(=O)O (stereo partly specified)	2.69	-0.41
CC(=O)C(/C=N/c1ncc(C(F)(F)F)cc1Cl)=C(\C)O	0.53	0.56
CCC(C)C(=O)Nc1nnc(SCC(=O)NC2CCCC2)s1 (stereo unspecified)	0.03	-1.12
CC1(c2ccccc2)NC(=O)N(CC(=O)Nc2ccc(S(N)(=O)=O)cc2)C1=O (stereo unspecified)	0.94	0.18
COc1ccc(/C=C(/NC(C)=O)C(=O)O)cc1	0.73	-0.1
COc1ccc(C(=O)CSc2nnc(CC(=O)Nc3ccccc3OC)n2C)cc1	2.24	-1.81
Cc1[nH]nc2c1C1(C(=O)Nc3ccc([N+](=O)[O-])cc31)C(C#N)=C(N)O2 (stereo unspecified)	0.57	-0.27
COCCNC(=O)CN(Cc1ccc(OC)cc1)C(=O)CCC(=O)Nc1nccs1	2.64	-0.81
CCOC(=O)c1ccc(NC(=S)Nc2ccc(Br)cc2N)cc1	0.02	0.12
CN(Cc1ccccc1)C(=O)c1ccc(NC2=NC3CS(=O)(=O)CC3S2)cc1 (stereo unspecified)	0.58	1.48
Cc1cc(C)c(C#N)c(=N)o1	0.36	-0.32
Cc1cccc(C)c1NC(=O)CSC(=S)N1CCCC1	1.61	-1.3
COC(=O)CCSCC(=O)Nc1ccc(C)c(S(=O)(=O)N2CCCCC2)c1	0.87	-0.45
O=C(N/N=C/c1ccc(O)cc1)c1cc(C2CC2)[nH]n1	0.63	1.24
CCOc1ccc(CCNC(=O)CSc2n[nH]c(N)n2)cc1OCC	0.37	-1.59
COc1ccc(Cl)cc1NC(=O)C1Cc2cc(S(=O)(=O)N3CCCC3)ccc2N1C(C)=O (stereo unspecified)	0.01	0.8
Cn1c(NC(=O)CC2CCCCC2)cc(=O)n(C)c1=O	0.14	0.26
CC1(C)Cn2c(nc(=O)c3c2NCN(CCc2ccccc2)C3)S1	1.2	0.03
Brc1ccccc1CN1CCC(N2CCCCC2)CC1	0.89	0.04
N#CC(c1ccccc1)c1cccc(Cl)n1 (stereo unspecified)	0.09	0
CC(=O)Nc1ccc(S(=O)(=O)NNC(=O)c2cc3c4ccccc4n(C)c3s2)cc1	0.01	1.35
CCOc1ccc(S(=O)(=O)N/N=C(\C)c2ccc(Cl)c(Cl)c2Cl)cc1	0.59	-0.97
CCCCc1nnc(NC(=O)C2=COCCO2)s1	1.88	0.04
Cc1cnc(NC(=O)CSc2nnc(-c3cccs3)n2C)s1	1.21	-0.13
Cc1cc(NC(=O)c2ccccc2NS(=O)(=O)c2c(C)c(C)cc(C)c2C)no1	0.33	-3.75
CN1C(=S)SC(C)(C)C1/[N+]([O-])=C/c1cccnc1 (stereo unspecified)	0.81	0.04
CC(C)C(=O)Nc1cccc(-c2cn3ccccc3n2)c1	0.81	0.65
Cc1cc(-c2ccc(C(C)C)c(S(=O)(=O)N3CC(=O)Nc4ccccc43)c2)on1	1.88	0.69
CC(Oc1ccc(Cl)cc1)c1ccc(C#N)c(=O)[nH]1 (stereo unspecified)	0.21	-0.36
Other records follow.
SMILES	KCNQ2 enhance	KCNQ2 enhance baseline
Cn1c(=O)c2[nH]c(CN3CCN(Cc4ccccc4)CC3)nc2n(C)c1=O	1.33	0.44
CCNC(=O)C1CCCc2c1[nH]c1ccc(Cl)cc21 (stereo unspecified)	0.77	-1.61
CN(C)c1ccc(N=Nc2nc3ccccc3n2C)cc1	0.38	-0.67
Cc1nc2cnccc2n1C	1.88	-0.62
O=c1[nH]c(SCc2cccc(Cl)c2)nc2c1CCCC2	0.73	-0.03
CCOC(=O)Nc1oc2ccccc2c(=O)c1CN1CCOCC1	0.25	0.02
CS(=O)(=O)c1ccc(-c2nnc(NC(=O)c3ccco3)o2)cc1	0.06	-3.5
CCOC(=O)N1CCC(=NNc2ccc(S(N)(=O)=O)cc2[N+](=O)[O-])CC1	1.5	-1.79
COc1ccc(C(C)NC(=S)NC2CCCC2)cc1OC (stereo unspecified)	0.16	-0.13
CCc1cc(=O)n2[nH]c(-c3ccccc3)c(-c3ccccc3)c2n1	0.03	-0.15
CC(=O)N[C@@H]1c2c(ccc3ccccc23)OC[C@@H]1COC(C)=O	0.85	0.25
CN(C(=O)CN1C(=O)NC2(CCc3ccccc32)C1=O)C1CCS(=O)(=O)C1 (stereo unspecified)	0.07	-3.03
O=C(c1ccc(Br)cc1)c1cc([N+](=O)[O-])ccc1N1CCOCC1	0.01	-0.17
COc1cc(CNCCCN2CCOCC2)cc(Cl)c1OCC(=O)NC(C)(C)C	0.64	-0.13
CC(=O)Nc1ccccc1-c1nnc(SCc2ccccc2Cl)[nH]c1=O	1.19	-2.34

Some of the entries so far, with the structure last:
KCNQ2 enhance,KCNQ2 enhance baseline,mol
0.01,-0.17,O=C(c1ccc(Br)cc1)c1cc([N+](=O)[O-])ccc1N1CCOCC1
1.33,0.44,Cn1c(=O)c2[nH]c(CN3CCN(Cc4ccccc4)CC3)nc2n(C)c1=O

Among those listed so far, two have a tert-butyl group.
SMILES	KCNQ2 enhance	KCNQ2 enhance baseline
CC(C)(C)n1nc2c(c1NC(=O)Cc1ccc([N+](=O)[O-])cc1)CS(=O)(=O)C2	1.11	-0.02
COc1cc(CNCCCN2CCOCC2)cc(Cl)c1OCC(=O)NC(C)(C)C	0.64	-0.13

Not all compounds are listed, so the mix of outcomes need not match the whole.
